# Bioassay records (PubChem BioAssay)
# RE007 growth inh – less growth of the S. pombe RE007 Vpr strain | S. pombe RE007 Vpr strain, BacTiter-Glo ATP luminescence, 24 h; control for the full effect not named in the record | Potency, µM (top dose mostly 92.2 µM), without a hit: at the highest dose activity change, negative = less growth | actives 0.21% (n = 360,000) | AID 651644; active = well fitted falling curve with a large enough effect; inconclusive = small, poorly fitted or top-dose-only effect; inactive = no such curve, though single readings can be large or run the other way;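 further: on the % scale 0 is the no-effect control and ±100 the full control effect; nearly all actives have a fitted effect of over 50% in size; the assay follows cell death caused by Vpr and the record does not say whether a fall means rescue or toxicity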
#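 Fission yeast RE007 carrying one integrated HIV-1 vpr copy, seeded at OD 0.01 in PMG+AL medium with 23 nL pinned compound. Grown 24 h at 30 degrees; viability read by BacTiter-Glo luminescence after 5 min.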
# Cruzain inh noDet – blocks cruzain activity in detergent-free assay. Potency, µM, for inactives: max response, negative = inhibition, usual class: inhibitors. purified cruzain, Z-FR-AMC fluorescence, no detergent. AID 1476. actives 2.3% (n = 200,000); active means well fitted curve in the direction sought with a large enough effect; inconclusive means small, poorly fitted or top-dose-only effect, or another doubt; inactive means no such curve, though single readings can be large; an effect the other way counts as inactive or inconclusive;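 further: plate controls were enzyme without inhibitor for no effect and buffer without enzyme for full effect; nearly all actives have a fitted effect of over 40% in size; top concentration of the series not given in the record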
# Target sequence (P25779 123-467 limits assumed): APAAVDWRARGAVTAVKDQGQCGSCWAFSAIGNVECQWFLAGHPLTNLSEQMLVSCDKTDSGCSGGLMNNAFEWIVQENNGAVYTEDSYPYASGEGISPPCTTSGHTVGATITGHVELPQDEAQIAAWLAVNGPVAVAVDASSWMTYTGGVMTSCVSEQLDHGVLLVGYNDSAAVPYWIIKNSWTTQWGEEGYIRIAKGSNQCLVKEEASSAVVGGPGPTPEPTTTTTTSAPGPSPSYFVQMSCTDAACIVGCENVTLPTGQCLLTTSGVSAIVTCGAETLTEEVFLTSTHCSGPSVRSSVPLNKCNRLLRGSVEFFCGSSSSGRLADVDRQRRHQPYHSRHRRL
#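 Purified cruzain at 1.5 nM, pre-incubated 15 min with compound at room temperature in 100 mM sodium acetate pH 5.5, 5 mM DTT, 0.00005% Triton X-100. Reaction started with 2 uM Z-FR-AMC; AMC fluorescence increase over 60 s gives rate.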
# MARV entry inh – inhibitors of Marburg virus binding or cell entry | Marburg virus pseudotyped entry inhibition, cell reporter; control for the full effect not named in the record; about a third of the inactives were read at about 46 µM | Potency, µM (highest dose often 37.8 µM), inactives show top-dose activity change, negative = inhibition, hits mostly inhibitors | actives 1.8% (n = 300,000); active = well fitted inhibition curve with a large enough effect; inconclusive = small, poorly fitted or top-dose-only effect, or effect the other way; inactive = flat fitted curve, though single readings scatter; tested in HEK293 cells; about a fifth of its hits are not listed in these tables; further: on the % scale 0 is the no-effect control and ±100 the full control effect; luciferase read-out
# NS1 function inh – influenza NS1 inhibition | Potency, µM (titrated, usually from 46.1 µM), for inactives: at the highest dose activity, positive = more growth | actives 0.4% (n = 270,000) | AID 2326 | S. cerevisiae slowed by influenza A NS1, growth recovery by OD600; further: actives are rising curves; nearly all actives have a fitted effect of over 50% in size
#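 OD600 was taken as the measure of yeast growth restored by compound in an NS1-expressing S. cerevisiae strain. Cells had been washed out of glucose medium and diluted 1:100 into galactose -URA medium, pH 6.0.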
# Cruzain Triton – blocks cruzain activity in presence of Triton detergent | actives 0.43% (n = 200,000) | Potency, µM, without a hit: max response, negative = inhibition, hits mostly inhibitors | AID 1478 | purified cruzain, Z-FR-AMC fluorescence, 0.01% Triton; active means well fitted curve in the direction sought with a large enough effect; inconclusive means small, poorly fitted or top-dose-only effect, or another doubt; inactive means no such curve, though single readings can be large; an effect the other way counts as inactive or inconclusive;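 further: plate controls were neutral wells for no effect and buffer without enzyme for full effect; nearly all actives have a fitted effect of over 40% in size; top concentration of the series not given in the record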
#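 Detergent-containing run (0.01% Triton X-100) in acetate buffer pH 5.5 with 5 mM DTT: enzyme at 1.5 nM final, 15 min compound preincubation at room temperature, then 2 uM Z-FR-AMC substrate. Activity taken as 60 s fluorescence increase at 360/450 nm.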
# LASV entry inh – inhibitors of Lassa virus binding or cell entry; Lassa virus pseudotype entry inhibition, cell reporter; control for the full effect not named in the record; Potency, µM (doses to about 37.9 µM), for inactives: top-dose activity change, negative = inhibition, actives largely listed as inhibitors; AID 540256; actives 1.2% (n = 300,000); active means well fitted inhibition curve with a large enough effect; inconclusive means small, poorly fitted or top-dose-only effect, or effect the other way; inactive means flat fitted curve, though single readings scatter; tested in HEK293 cells; further: on the % scale 0 is the no-effect control and ±100 the full control effect; nearly all actives have a fitted effect of over 50% in size; luciferase read-out
# StopGo reporter – FMDV 2A StopGo reporter, luciferase signal; human cells with a luciferase reporter of 2A StopGo recoding; control for the full effect not named in the record; Potency, µM (top dose mostly 57.9 µM), without a hit: at the highest dose signal change, negative = less light; actives 1.2% (n = 410,000); active = well fitted falling curve with a large enough effect; inconclusive = small, poorly fitted or top-dose-only effect; inactive = no such curve, though single readings can be large or run the other way; tested in HEK293T cells; further: on the % scale 0 is the no-effect control and ±100 the full control effect; nearly all actives have a fitted effect of over 45% in size; luciferase light after 4 h
# SARS PLP yeast – inhibitors of SARS-CoV papain-like protease in yeast; S. cerevisiae expressing SARS-CoV PLpro, growth rescue; control for the full effect not named in the record; Potency, µM (doses to about 32.9 µM), for inactives: top-dose activity, positive = growth rescue; actives 0.19% (n = 330,000); AID 485353; further: 0% is about no effect; nearly all actives have a fitted effect of over 55% in size; growth read by luminescence after 48 h
# * marks the source's active call; other numbers are inactive results; ? = inconclusive; / = not tested or not shown; & = joins results of further samples; [ ] = remark or other dose. Unless noted, the call rests on the fitted dose curve; in most records, active means well fitted rising curve with a large enough effect; inconclusive means small, poorly fitted or top-dose-only effect; inactive means no such curve, though single readings can be large or run the other way. Potency means the concentration at half of the fitted maximal effect.
compound	NS1 function inh	LASV entry inh	SARS PLP yeast	MARV entry inh	Cruzain Triton	Cruzain inh noDet	StopGo reporter	RE007 growth inh
COc1ccc(S(=O)(=O)N2CCCC(C(=O)NCc3ccc4c(c3)OCO4)C2)cc1 (stereo unspecified)	-61%	-13%	-3%	12%[46.1 µM]	/	/	-10%	0%
CNC(=O)COC(=O)c1cc2c(C)nn(-c3ccc(F)cc3)c2s1	8%	-17%	9%	?	3.4%	8%	20%	-3%
COC(=O)C1=CN(c2ccc(F)c(F)c2)C=C(C(=O)OC)C1c1ccc([N+](=O)[O-])cc1	7%	?	-1%	?	/	/	-19%	1%
O=C(NC1CC1)C1=C[C@@H](C2CCCCC2)C[C@@H](OCCCCO)O1	0%	/	-4%	/	/	/	-2%	6%
Cc1nc2ccccc2c(=O)n1CCCn1ccnc1	-8%	1%	4%	1%[46.1 µM]	3.7%	-5%	4%	0%
O=C(NCCN1CCOCC1)c1cc(-c2cccc(O)c2)on1	-5%	-27%	-4%	-15%[46.1 µM]	/	/	14%	5%
COc1ccc(C2=NN(C(=O)c3cccs3)C(c3ccccc3OC)C2)cc1OC (stereo unspecified)	-3%	?	1%	?	/	/	-15%	1%
O=C(/C=C/c1ccccc1O)c1ccc(Cl)cc1	-35%	/	-7%	/	/	/	30%[activator]	5%
COc1ccc(OC)c(NC(=O)CN2CCCN(Cc3cc(C)ccc3C)S2(=O)=O)c1	/	15%[46.1 µM]	/	/	-1.3%	-4%	-27%	/
O=C(CC1OC(=O)c2ccccc21)Nc1cc(S(=O)(=O)N2CCOCC2)ccc1OCC(F)(F)F (stereo unspecified)	/	?	/	1%	/	/	-2%	-3%
O=C(CN1CCOCC1)Nc1ccc(OCc2ccccc2)cc1	-69%	18%	-2%	?	4.9%	3%	54%[activator]	15%
COc1ccc(NC(=O)c2cnn(-c3ccccc3)c2C)cc1	-26%	/	-3%	/	/	/	20%	0%
CC1(OC(=O)C2CCCC2)C(=O)C=C2C=C(c3ccsc3)N(CCc3c[nH]c4ccccc34)C=C2C1=O (stereo unspecified)	?	/	-1%	/	/	/	-13%	-9%
CO/N=C\CC(=O)Nc1ccc(F)cc1	-2%	0%	1%	3%	-1.7%	-9%	30%	24%
O=P(O)(O)CP(=O)(O)O	1%	/	4%	/	4.3%	-2%	/	/
COc1ccccc1OCCNC(=O)c1ccc2c(c1)CCC2	-22%	28%	-9%	?	/	/	0%	11%
[O-][n+]1onc2c3ccnnc3ccc21	-7%	2%	5%	-17%	1.3%	4%	-24%	-1%
COC(=O)c1ccc(CSc2nnc3c(Cl)cc(Cl)cn23)o1	-7%	4%	-1%	8%	1.3%	0%	-5%	-2%
O=C(COc1ccc([N+](=O)[O-])cc1)N/N=C/c1ccccn1	5%	4%	9%	1%	-11%	-3%	-10%	6%
CCOC(=O)N1CCN(C(=O)c2cc(-c3ccncc3)nc3ccccc23)CC1	/	-30%	-2%	?	/	/	-23%	-17%
CCCc1cc(=O)oc2cc(C)cc(OCC(=O)Nc3ccc(CN4CCOCC4)cc3)c12	-5%	/	-2%	/	/	/	-17%	5%
COc1ccc(-n2nnnc2C2CCN(S(=O)(=O)c3ccc(F)cc3Cl)CC2)cc1	/	-27%[46.1 µM]	/	?	-1.3%	8%	?	/
CC(=O)C12OC(C)(C)OC1CC1C3CCC4=CC(=O)C=CC4(C)C3(F)C(O)CC12C (stereo unspecified)	/	-3%[46.1 µM]	/	-2%[46.1 µM]	/	/	-7%	3%
CCOC(=O)c1c(-c2ccc(OC)cc2)csc1NC(=O)CCN1C(=O)c2ccccc2C1=O	11%	-20%	2%	-20%	-2.7%	16µM*	33%[activator]	-14%
COCc1c(C)cc(C)c(/C=N/O)c1C	-4%	11%	-1%	?	2.1%	0%	-15%	8%

# 2 compounds picked at random from the list so far:
compound	NS1 function inh	LASV entry inh	SARS PLP yeast	MARV entry inh	Cruzain Triton	Cruzain inh noDet	StopGo reporter	RE007 growth inh
COc1ccc(OC)c(NC(=O)CN2CCCN(Cc3cc(C)ccc3C)S2(=O)=O)c1	/	15%[46.1 µM]	/	/	-1.3%	-4%	-27%	/
COCc1c(C)cc(C)c(/C=N/O)c1C	-4%	11%	-1%	?	2.1%	0%	-15%	8%

# Further entries follow.
compound	NS1 function inh	LASV entry inh	SARS PLP yeast	MARV entry inh	Cruzain Triton	Cruzain inh noDet	StopGo reporter	RE007 growth inh
S=c1[nH]c2ccccc2n2c(=S)[nH]nc12	7%	/	16%	/	/	/	0%	18%
CCC(CC)c1nnc(NC(=O)CN2C(=O)C3C4C=CC(C4)C3C2=O)s1 (stereo unspecified)	-4%	4%	6%	2%	0.1%	2%	-20%	-1%
Cc1c(S(=O)(=O)N2CCCC2)c(=O)n(C)c(=O)n1C	/	8%	1%	4%[46.1 µM]	/	/	-18%	-21%
Cc1ccc(S(=O)(=O)N2CCN(C(=O)CSc3nncs3)CC2)cc1	7%	-5%	0%	1%[46.1 µM]	/	/	-2%	7%
CCOC(=O)C1CCCN1C(=O)C1(NC(C)=O)CCCC1 (stereo unspecified)	/	14%	/	?	/	/	0%	-3%
Cc1cccc(C)c1NC(=O)N1CCC(C(=O)c2ccc(F)cc2)CC1	13%	4%[46.1 µM]	-1%	-1%[46.1 µM]	/	/	-4%	11%
CCOC(=O)c1c(C)oc2nc(C)nc(NCCc3ccc(C)cc3)c12	/	15%[46.1 µM]	/	/	-1.5%	-6%	-10%	/
CC(=O)Oc1c(/C=C(\C#N)C(N)=O)[nH]c2ccccc12	-20%	16µM*	-48%	?	-8.5%	-9%	-9%	?
NNC(=O)CNC(=O)c1cccc(Br)c1	3%	4%	-3%	13%	5.1%	-1%	6%	2%
O=c1c2ccccc2nc(N/N=C/c2c(O)ccc3ccccc23)n1O	22%	0.63µM*	13µM*	0.79µM*	-13%	-12%	0%	-12%
CC(C)Cc1nnc(NC(=O)CCC(=O)N2CCN(C3CCCC3)CC2)s1	-3%	?	1%	12%[46.1 µM]	/	/	-9%	4%
COCCCn1c(-c2ccco2)nc2ccccc2c1=O	-9%	-7%	-2%	12%	-1.2%	4%	-21%	4%
CC(/C=C/C=C/c1ccccc1)=N\NC(=O)c1cccnc1	/	5%	-3%	6%[14.2 µM]	/	/	-16%	-9%
O=C(c1cc2ccccc2oc1=O)N1CCN(c2ncccn2)CC1	-4%	?	4%	?	-4.1%	-11%	85%[activator]	-4%
CCc1ccc(CNC(=O)c2cc3cc4ccc(OC)cc4nc3o2)cc1	/	-9%[46.1 µM]	/	3%[46.1 µM]	-1.6%	11%	-17%	/
CCOC(=O)N1CCN(S(=O)(=O)c2ccc(C)c(C)c2)CC1	-46%	-19%	-2%	1%	1.3%	-1%	-15%	3%
CCOc1ccc(OCC(=O)N2CCC3(CC2)CC(=O)c2ccccc2O3)cc1	/	-14%	-7%	-23%	/	/	-11%	5%
CN(Cc1cccs1)C(=O)COc1cccc2c1OC(C)(C)C2	/	-4%[46.1 µM]	-11%	21%	/	/	19%	9%
Cc1ccccc1NC(=O)c1c(NC(=O)Cc2ccccc2)sc2c1CCC2	/	2%[46.1 µM]	/	/	-1.6%	-10%	-12%	/
Cc1ccsc1CNCCc1ccccc1F	-9%	/	1%	/	/	/	-2%	-2%
Cc1cccc(OCCSc2nc3ccc(NC(=O)COc4ccccc4C)cc3s2)c1	/	26%[46.1 µM]	/	2%[46.1 µM]	-0.9%	8%	0%	/
Cc1cccc(NC(=O)/C(C#N)=C/c2ccc(F)cc2)n1	1%	/	17%	/	/	/	24%	-6%
CN(C)c1ccc(CC2C(=O)Nc3ccccc32)cc1 (stereo unspecified)	-1%	-9%	1%	25%[46.1 µM]	/	/	50%[activator]	-12%
CCOC(=O)c1nn(-c2ccc(Cl)cc2)c(C)cc1=O	1%	/	1%	/	/	/	-10%	20%
CCOC(=O)[C@@H]1[C@H]2COc3ccc(Br)cc3[C@@H]2N2C(=O)N(c3ccccc3)C(=O)[C@]12C	16%	/	2%	/	/	/	-17%	2%

# The results go on:
compound	NS1 function inh	LASV entry inh	SARS PLP yeast	MARV entry inh	Cruzain Triton	Cruzain inh noDet	StopGo reporter	RE007 growth inh
COc1ccc(N2CCN(C(=O)CNC(=O)c3cccc(Br)c3)CC2)cc1	-13%	0%	-10%	0%[46.1 µM]	/	/	3%	-7%
CCN1CCN(C(CC(C)C)c2nnnn2CS(=O)(=O)c2ccc(C)cc2)CC1 (stereo unspecified)	-4%	-22%	0%	?	/	/	-12%	3%
Cc1cccc(C(=O)OCC(=O)NCC(C)C)c1O	/	/	-3%	3%[46.1 µM]	/	/	22%	4%
Cc1ccsc1/C=N/NC(=O)C1CC(=O)N(c2ccc(F)cc2)C1 (stereo unspecified)	-5%	/	0%	/	/	/	9%	-1%
S=C(Nc1ccccc1Cl)N1CCOCC1	5%	3%	25%	-1%	-2.5%	3%	-9%	6%
CC(=O)Nc1ccc(S(=O)(=O)Nc2nc3ccccc3nc2-n2ccc(=NC(=O)c3ccc(F)cc3)cc2)cc1	/	?	-3%	28%[46.1 µM]	/	/	-5%	-5%
Cc1ccc(NC(=O)CSc2nnc3n2CCCCC3)cc1	11%	26%	13%	?	0.4%	-1%	-12%	-1%
COC(=O)c1cc(NC(=O)c2cnc(SC)nc2-c2ccccc2)cc(C(=O)OC)c1	/	3%[46.1 µM]	/	/	-4.5%	11%	-18%	/
Cc1ncc([N+](=O)[O-])n1S(=O)(=O)c1ccc2c(c1)OCCO2	/	12%	/	7%[46.1 µM]	/	/	-2%	-6%
CCCCn1c2ccc(F)cc2c2nnc(SCCN3CCCCC3)nc21	2%	-13%&21%[46.1 µM]	-11%	17%&9%[46.1 µM]	16µM*	?	?	5%
CCOC(=O)CC1Sc2ccccc2NC1=O (stereo unspecified)	1%	1%	-6%	17%	-0.5%	2%	51%[activator]	3%
